ClpP mod = qHTS Assay for Activators of ClpP. ATP-dependent Clp protease proteolytic subunit (Bacillus subtilis (strain 168)), P80244. actives 1.9% (n = 340,000). purified B. subtilis ClpP, FRET peptide cleavage, 20 min. Potency, µM (highest dose often 57.5 µM), inactives show at the top dose activity change, negative = active; active = well fitted falling curve with a large enough effect; inconclusive = small, poorly fitted or top-dose-only effect; inactive = no such curve, though single readings can be large or run the other way; note: potency is the fitted concentration of half-maximal effect; the source files actives as falling curves though it sought activators and does not explain the sign; nearly all actives have a fitted effect of over 65% in size; many hits overshoot -100%
Target sequence (P80244 whole entry, looked up): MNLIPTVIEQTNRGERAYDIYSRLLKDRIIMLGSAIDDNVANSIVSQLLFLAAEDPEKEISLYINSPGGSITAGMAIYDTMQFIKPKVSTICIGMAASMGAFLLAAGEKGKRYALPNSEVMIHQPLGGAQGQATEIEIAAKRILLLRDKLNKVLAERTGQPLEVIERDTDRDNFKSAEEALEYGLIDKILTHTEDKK
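Buffer: 100 mM Tris/HCl pH8, 100 mM KCl, 0.05% low protease BSA, 2.5% glycerol, 0.01% Tween-20. ClpP 10 microg/mL final; 20 min RT; delta FRET normalized to ADEP and DMSO controls.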
gsp ag = activates gsp, the McCune-Albright syndrome mutation; gsp mutant cells, cAMP HTRF, 30 min; control for the full effect not named in the record; Potency, µM (highest dose often 76.9 µM), without a hit: top-dose activation (cAMP increase), actives largely listed as activators; actives 0.13% (n = 340,000); active = well fitted activation curve with a large enough effect; inconclusive = small, poorly fitted or top-dose-only effect, or another doubt; inactive = no such curve, though single readings can be large or run the other way; cell line not stated here;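 note: phosphodiesterase inhibitor Ro 20-1724 added with compounds to block cAMP breakdown; potency is the fitted concentration of half-maximal effect; nearly all actives have a fitted effect of over 60% in size; about a fifth of the inactives were tested at one dose only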
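Cells in DMEM/10% FBS with G418 were pretreated with compounds in DMSO plus […] (300 uM stock) for 30 min at 37C. cAMP was measured by HTRF (cAMP-d2 plus anti-cAMP antibody-K) after 30 min at room temperature.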
TRPML1 inh = human mucolipin-1 channel inhibition | TRPML1-inducible cells, Ca2+ dye fluorescence, FDSS; hits give low values; inhibition of EC80 agonist-evoked calcium signal | activity change, negative = inhibition, % (test concentration not listed) | actives 0.02% (n = 390,000); in the data active means activity change below about -50%; inconclusive means about -30% to -50%; inactive means above about -30%;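 note: stimulus is agonist 54-4 at its EC80 concentration; % is set by controls: 0 for no effect and ±100 for the full control effect; compound concentration not given in the record; the text of the record puts the active cut at -80%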
Target sequence (Q9GZU1 whole entry, looked up): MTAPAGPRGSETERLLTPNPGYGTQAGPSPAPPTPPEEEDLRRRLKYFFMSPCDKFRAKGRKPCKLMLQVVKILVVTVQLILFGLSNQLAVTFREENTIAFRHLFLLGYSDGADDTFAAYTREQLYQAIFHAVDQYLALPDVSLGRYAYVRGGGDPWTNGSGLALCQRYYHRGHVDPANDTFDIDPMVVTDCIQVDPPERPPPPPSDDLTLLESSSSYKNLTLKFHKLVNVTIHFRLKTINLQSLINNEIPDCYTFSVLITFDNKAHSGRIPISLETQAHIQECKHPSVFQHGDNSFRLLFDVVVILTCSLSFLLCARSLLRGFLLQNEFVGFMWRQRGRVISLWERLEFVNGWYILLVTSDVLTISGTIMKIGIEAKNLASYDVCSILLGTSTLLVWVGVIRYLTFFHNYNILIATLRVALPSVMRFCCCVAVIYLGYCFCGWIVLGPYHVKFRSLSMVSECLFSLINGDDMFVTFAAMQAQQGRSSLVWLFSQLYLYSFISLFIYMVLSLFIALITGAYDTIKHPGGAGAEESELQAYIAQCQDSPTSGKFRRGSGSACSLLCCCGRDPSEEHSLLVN
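TRPML1-DL cells, Tet-induced overnight (~16 h, 37 °C) at 1,500 cells/well, were loaded with Ca8 no-wash dye plus quencher for 45-90 min at room temperature. Compounds were pinned during FDSS kinetic reading; agonist 54-4 at EC80 (4 uM final) then added.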
gsp antag = gsp mutant antagonism; gsp-mutant cells, cAMP HTRF, 30 min; control for the full effect not named in the record; Potency, µM (top dose mostly 76.9 µM), for the others: at the highest dose activity change, negative = inhibition, usual class: inhibitors; actives 0.4% (n = 340,000); AID 624288; active = falling curve of any shape with a large fitted effect; inconclusive = falling curve, mostly with a smaller effect; inactive = flat or rising curve; cell line not stated here;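 note: intracellular cAMP measured with PDE inhibitor Ro 20-1724 present during compound exposure; potency is the fitted concentration of half-maximal effect; % is set by controls: 0 for no effect and ±100 for the full control effect; nearly all actives have a fitted effect of over 65% in size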
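Cells in G418 medium, seeded 16-24 h, 37C; buffer exchange to DPBS + 1 mM CaCl2, 0.5 mM MgCl2, 0.05% BSA; cpds in DMSO + […] (300 uM stock), 30 min 37C; HTRF cAMP detection.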
TRPML1 agonist = agonists of human TRPML1 channel. TRPML1-expressing cells, Ca2+ dye fluorescence, FDSS; host cell line not named in the record; reference of the full effect not given here. activation, % (concentration not given with the values). actives 0.12% (n = 410,000). AID 624414; in the data active = activation above about 50%; inconclusive = about 30% to 50%; inactive = below about 30%; note: 0% is about no effect; the text of the record puts the active cut at 80%
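In this qHTS format, compounds were pin-transferred onto Ca8-dye-loaded TRPML1-DL cells induced with Tet overnight, and intracellular Ca2+ fluorescence was recorded kinetically for 110 s after a 10 s baseline. A subsequent 4uM final 54-4 (EC80) addition followed by a second 110 s read served as the antagonist phase.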
Menin MLL FP FL = menin-MLL binding inhibition, fluorescein peptide | Fluorescence polarization, fluorescein-MLL peptide displacement from menin | FP activity change, % at 61.4 µM | 290,000 tested, under 10 active | AID 1766; inconclusive = falling polarisation curve, or a change in total fluorescence; inactive = total fluorescence flat and polarisation flat or rising; no compound was filed as active; the % refers to the polarisation; negative = inhibition;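 note: % of control where 0% means no effect; inhibitors lower the polarisation; unlabelled MLL peptide was the positive control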
* = called active by the depositor; [ ] = dose if it differs, or a comment.

Screening CN(C)C(=O)CN1C(=O)NC(c2ccccc2)(c2ccccc2)C1=O returned gsp ag -4.5%, TRPML1 inh -15.7, gsp antag 8.2%, TRPML1 agonist 0.7 and Menin MLL FP FL 0.6.
`CCc1nc2ccc(C(=O)NCCOc3ccc(OC)cc3)cn2c1N(C)C(=O)C1CCCCC1` gave ClpP mod -4.0%, TRPML1 inh 6.4 and TRPML1 agonist -0.6.
COc1ccc(NC(=O)c2ccc(S(=O)(=O)N3CCCCC3)cc2)c(OC)c1 was read as gsp ag 18.2%, TRPML1 inh 5.8, gsp antag 1.8%, TRPML1 agonist -0.1 and Menin MLL FP FL 0.7.
Screening Cc1ccc(S(=O)(=O)NCCC(=O)Nc2nnc(C3CC3)s2)cc1C returned ClpP mod 3.1%, gsp ag -3.0%, TRPML1 inh 10.2, gsp antag -10.8%, TRPML1 agonist -0.2 and Menin MLL FP FL 0.6.
`CC1=C(C(=O)Nc2ccccc2)C(c2ccc(C)o2)n2c(s/c(=C/c3ccccc3)c2=O)=N1` (configuration not stated) gave ClpP mod 1.0%, gsp ag -2.6%, TRPML1 inh -6.2, gsp antag -11.2%, TRPML1 agonist -0.3 and Menin MLL FP FL 10.3.
Screening O=C(c1cccs1)N(Cc1cc2ccccc2[nH]c1=O)c1ccccc1 returned ClpP mod -11.3%, gsp ag -24.9%, TRPML1 inh 12.0, gsp antag -13.2%, TRPML1 agonist 0.4 and Menin MLL FP FL 0.2.
Cc1ccc(CNC(=O)CN2CCN(Cc3ccc(F)cc3)C2=O)cc1 was read as ClpP mod -0.2%, TRPML1 inh 2.5 and TRPML1 agonist -1.2.
O=C(NCc1cccnc1)Nc1ccc(Cl)cc1Cl was read as ClpP mod -1.2%, gsp ag -1.2%, TRPML1 inh 10.4, gsp antag 7.7% and TRPML1 agonist -0.3.
For CCn1c(C)cc(/C=C2\NC(=O)N(CC(=O)Nc3ccc(F)cc3)C2=O)c1C the results were gsp ag -1.3%[15.4 µM], TRPML1 inh 2.5, gsp antag -32.0%, TRPML1 agonist -0.9 and Menin MLL FP FL 5.7.
Cc1ccc(C(=O)NCC(=O)N2CCC(Cc3ccccc3)CC2)cc1 was read as gsp ag 8.0%[15.4 µM], TRPML1 inh 2.7, gsp antag -1.0% and TRPML1 agonist 1.3.
`COc1cc(/C=N/O)ccc1OCc1ccccc1Cl` gave gsp ag -51.4%[inhibitor], TRPML1 inh 0.0, gsp antag -12.1%, TRPML1 agonist 0.5 and Menin MLL FP FL 3.9.
Screening COc1ccc(/C=N/N=C2/SCC(=O)N2Cc2ccccc2)cc1 returned ClpP mod 0.3%, gsp ag -8.6%[15.4 µM], TRPML1 inh -5.3, gsp antag inconclusive, TRPML1 agonist -0.4 and Menin MLL FP FL -0.2.
`CN(C)C(=O)Cn1c(SCC(=O)NCc2ccc3c(c2)OCO3)nc2ccccc21` gave ClpP mod -1.5%, gsp ag -43.0%[inhibitor], TRPML1 inh 18.0, gsp antag 8.4%, TRPML1 agonist -0.1 and Menin MLL FP FL 2.2.
CCOc1ccc(S(=O)(=O)NCc2cccnc2)cc1 was read as ClpP mod -4.7%, gsp ag -1.3%[15.4 µM], TRPML1 inh 7.8, gsp antag 5.7%, TRPML1 agonist -1.3 and Menin MLL FP FL -5.9.
`COc1ccc(C(=O)Nc2ccc(N3CCN(C(=O)C(C)C)CC3)cc2)cc1[N+](=O)[O-]` gave ClpP mod -2.6%, gsp ag -18.8%, TRPML1 inh 7.9, gsp antag 5.9%, TRPML1 agonist 1.3 and Menin MLL FP FL 3.4.
`S=C(Nc1ccccc1)N1CCN(C2CCCCC2)CC1` gave ClpP mod -1.1%, gsp ag -21.9%, TRPML1 inh -1.8, gsp antag 9.9%, TRPML1 agonist -0.1 and Menin MLL FP FL -2.2.
Screening CCOc1ccccc1C(=O)NC1CC2CCCC(C1)N2Cc1nnnn1Cc1ccco1 (configuration not stated) returned ClpP mod 0.8%, gsp ag -12.3%, TRPML1 inh -6.1, gsp antag inconclusive, TRPML1 agonist 1.5 and Menin MLL FP FL 4.5.
C=C(C)CSc1nc2sc3c(c2c(=O)n1CCCC)CCCC3 was read as ClpP mod -1.5%, TRPML1 inh 12.0 and TRPML1 agonist -0.6.
Screening CCCC(=O)Nc1ccccc1NC(=O)c1ccc(OC(C)=O)cc1 returned gsp ag -0.3%, TRPML1 inh 6.1, gsp antag 9.9%, TRPML1 agonist -0.7 and Menin MLL FP FL -1.1.
Cc1cc(S(=O)(=O)Nc2ccc3ccccc3c2)c(C)s1 was read as ClpP mod -2.4%, gsp ag -12.1%, TRPML1 inh -3.1, gsp antag -21.9%, TRPML1 agonist 2.3 and Menin MLL FP FL 4.9.
`COc1cc(/C=N/NC(=O)c2ccncc2)ccc1OCCN1CCCCC1` gave ClpP mod -0.5%, gsp ag 3.8%, TRPML1 inh -10.0, gsp antag 1.3%, TRPML1 agonist 0.0 and Menin MLL FP FL 1.7.
For COC(=O)c1cnc(Oc2ccc(NC(=O)NC(=O)c3c(F)cccc3Cl)cc2)cc1C(F)(F)F the results were gsp ag 15.3%, TRPML1 inh 29.7, gsp antag 4.3%, TRPML1 agonist 0.3 and Menin MLL FP FL 1.3.
`CCC(C)(C(=O)NC1CCCC1)N(Cc1cccs1)C(C)=O` (configuration not stated) gave ClpP mod 2.1%, gsp ag 13.0%, TRPML1 inh -3.5, gsp antag 14.5%, TRPML1 agonist -0.8 and Menin MLL FP FL 3.7.
Screening O=C(Cn1nc(-c2ccc(N3CCOCC3)c([N+](=O)[O-])c2)c2ccccc2c1=O)N1CCCCC1 returned ClpP mod -3.5%, gsp ag 23.1%, TRPML1 inh 29.9, gsp antag 10.1%, TRPML1 agonist 2.1 and Menin MLL FP FL -0.3.
For CCOc1ccc(CCNC(=O)CCc2nnc3ccc(N4CCOCC4)nn23)cc1 the results were ClpP mod -1.2%, gsp ag 14.9%, TRPML1 inh -9.3, gsp antag -0.7%, TRPML1 agonist -0.2 and Menin MLL FP FL 1.4.
CC(C)C[C@@H]1NC(=O)N(CCCn2ccnc2)C1=O was read as ClpP mod -0.2%, gsp ag -15.1%, TRPML1 inh 18.4, gsp antag 6.3%, TRPML1 agonist 1.0 and Menin MLL FP FL -1.2.
For Cc1cc(C)c(C#N)c(N2CCSCC2)n1 the results were ClpP mod 35.5µM*, gsp ag -2.8%, TRPML1 inh 7.2, gsp antag -3.4%, TRPML1 agonist 1.3 and Menin MLL FP FL 0.1.
Screening CC1C/C(=N/NC(=O)c2ccc(CSc3nc4ccccc4[nH]3)cc2)CC(C)(C)C1 (configuration not stated) returned ClpP mod -1.8%, gsp ag -20.3%, TRPML1 inh -3.1, gsp antag 8.8%, TRPML1 agonist 0.4 and Menin MLL FP FL 11.5.
For CC(Sc1ncccn1)C(=O)Nc1ccc2c(c1)OCO2 (configuration not stated) the results were ClpP mod -1.4%, gsp ag -37.1%[inhibitor], TRPML1 inh 24.0, gsp antag -11.8% and TRPML1 agonist 0.7.
CCN(CC(=O)NCc1ccc(F)cc1)C(=O)Cc1ccc(OC)cc1 was read as ClpP mod 15.8µM*, gsp ag 12.3%[15.4 µM], TRPML1 inh 14.1, gsp antag 6.8%, TRPML1 agonist -1.1 and Menin MLL FP FL 3.1.
Screening O=C(N/N=C/C(Br)=C/c1ccccc1)c1cnccn1 returned gsp ag inconclusive, TRPML1 inh 12.4, gsp antag -13.2%, TRPML1 agonist 0.1 and Menin MLL FP FL 1.7.
Screening O=C(Cc1c(F)cccc1Cl)NCCN1CCOCC1 returned ClpP mod 0.9%, gsp ag -83.6%[inhibitor], TRPML1 inh 6.0, gsp antag 4.3%, TRPML1 agonist 0.7 and Menin MLL FP FL 2.8.
Screening Cc1c(Br)c([N+](=O)[O-])nn1CC(=O)NCc1cccs1 returned ClpP mod -1.6%, gsp ag 15.7%, TRPML1 inh 8.9, gsp antag 5.8%, TRPML1 agonist 0.5 and Menin MLL FP FL 13.2.
For Cc1cccc(-n2c(SCC(=O)Nc3ccccc3C)nc3c(oc4ccccc43)c2=O)c1 the results were ClpP mod -4.3%, TRPML1 inh 9.3 and TRPML1 agonist 1.7.
CCNC(=O)c1ccc(NS(=O)(=O)c2ccc3[nH]c(=O)[nH]c3c2)cc1 was read as ClpP mod 1.0%, gsp ag -35.4%, TRPML1 inh 11.9, gsp antag 2.6% and TRPML1 agonist 0.3.
For O=C(N/N=C/c1ccc(N2CCCCC2)o1)c1ccccc1[N+](=O)[O-] the results were ClpP mod -1.2%, gsp ag 0.6%, TRPML1 inh 16.3, gsp antag 7.1%, TRPML1 agonist -0.5 and Menin MLL FP FL 0.5.
`O=C(COC(=O)c1cccc(-n2cnnn2)c1)Nc1c(Cl)cccc1C(F)(F)F` gave ClpP mod -2.9%, gsp ag 18.0%[15.4 µM], TRPML1 inh 0.9, gsp antag 5.2% and TRPML1 agonist 0.3.
O=C(CCCC1=NS(=O)(=O)c2ccccc2N1)N1CCN(c2ccc(Cl)cc2)CC1 was read as ClpP mod -0.9%, gsp ag -51.1%, TRPML1 inh -11.9, gsp antag inconclusive, TRPML1 agonist -0.2 and Menin MLL FP FL -0.1.
`CCOC(=O)N1C2c3ccccc3C(c3ccccc32)N1C(=O)OCC` gave ClpP mod -13.4%, gsp ag -52.3%[inhibitor], TRPML1 inh 1.7, gsp antag 10.3% and TRPML1 agonist 0.7.
Screening O=C(c1ccc(Cl)cc1)N1CCCCC(Sc2nnc(-c3ccc4c(c3)OCO4)o2)C1=O (configuration not stated) returned ClpP mod -8.1%, gsp ag 17.8%, TRPML1 inh -9.5, gsp antag -2.6%, TRPML1 agonist -0.4 and Menin MLL FP FL 2.4.
COC(=O)c1ccccc1NC(=O)c1cnc2sccn2c1=O was read as ClpP mod -3.7%, gsp ag inconclusive, TRPML1 inh 23.9, gsp antag 8.6%, TRPML1 agonist 0.2 and Menin MLL FP FL 2.1.
`CCOCCOc1cccc(C(=O)NC(c2ccccc2)c2ccccc2)c1` gave ClpP mod -0.2%, gsp ag -35.9%[inhibitor], TRPML1 inh -8.5, gsp antag -2.1%, TRPML1 agonist 3.4 and Menin MLL FP FL -2.7.
`CCOC(=O)c1c(-c2cccs2)csc1NC(=O)C(C)(C)C` gave ClpP mod -10.6%, gsp ag 5.6%, TRPML1 inh -3.3, gsp antag -3.0%, TRPML1 agonist 19.8 and Menin MLL FP FL 3.1.
Screening Cc1ccccc1-c1nc2scc(CCNS(=O)(=O)c3ccccc3)n2n1 returned ClpP mod -0.9%, TRPML1 inh -18.4 and TRPML1 agonist 0.6.

Assay outcomes as filed in PubChem.
